gsp ag: activates gsp, the McCune-Albright syndrome mutation; gsp mutant cells, cAMP HTRF, 30 min; control for the full effect not named in the record; Potency, µM (series often up to 76.9 µM), without a hit: at the highest dose activation (cAMP increase), usual class: activators; 0.13% of 340,000 active; active = well fitted activation curve with a large enough effect; inconclusive = small, poorly fitted or top-dose-only effect, or another doubt; inactive = no such curve, though single readings can be large or run the other way; cell line not stated here;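 note: phosphodiesterase inhibitor Ro 20-1724 added with compounds to block cAMP breakdown; potency is the fitted concentration of half-maximal effect; nearly all actives have a fitted effect of over 60% in size; about a fifth of the inactives were tested at one dose only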
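Cells stably selected in G418 were plated at 2000/well, grown 16-24 hr, then given compounds in DMSO with the PDE inhibitor […] (300 uM solution added) for 30 min at 37C; cAMP was read by HTRF.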
TRPV1 potentiator: human TRPV1 potentiation | AID 540277 | 0.02% of 320,000 active | TRPV1-expressing cells, Fluo-8 calcium influx, capsaicin EC20 potentiation; host cell line not named in the record; control for the full effect not named in the record | potentiation, % at 8.33 µM | Q8NER1; active means potentiation above 80%; inconclusive means 30% to 80%; inactive means below 30%; note: 0% is about no effect
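TRPV1-expressing cells were cultured overnight at 35.5C and loaded with Fluo-8 calcium dye for 40 to 90 min at room temperature. After a 10 s baseline, compound was added and calcium influx was read kinetically for 3 min (ex 480/em 520 nm).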
Sfp inh: blocks B. subtilis Sfp PPTase activity | AID 1490 | Biochemical Sfp PPTase activity, qHTS | Q9F4F7 | Potency, µM, for inactives: max response, negative = inhibition, hits mostly inhibitors | 3.5% of 310,000 active; active = well fitted inhibition curve with a large enough effect; inconclusive = small, poorly fitted or top-dose-only effect, or another doubt; inactive = no such curve, though single readings can be large or run the other way;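 note: the enzyme is Sfp with the accession as filed and its product quenches rhodamine fluorescence; potency is the fitted concentration of half-maximal effect; 0% = enzyme reaction without inhibitor and -100% = no enzyme wells; top concentration of the series not given in the record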
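After 15 min at room temperature with compound, 15 nM Sfp received 5 uM rhodamine-CoA plus 12.5 uM BHQ-2-ybbR (50 mM Hepes pH 7.6, 10 mM MgCl2). Rate came from the fluorescence difference over 30 min, ex 525/em 598 nm.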
ClpP mod: qHTS Assay for Activators of ClpP. ATP-dependent Clp protease proteolytic subunit (Bacillus subtilis (strain 168)), P80244. purified B. subtilis ClpP, FRET peptide cleavage, 20 min. Potency, µM (series often up to 57.5 µM), inactives show at the top dose activity change, negative = active. 1.9% of 340,000 active. AID 651965, 2013; active = well fitted falling curve with a large enough effect; inconclusive = small, poorly fitted or top-dose-only effect; inactive = no such curve, though single readings can be large or run the other way; note: potency is the fitted concentration of half-maximal effect; the source files actives as falling curves though it sought activators and does not explain the sign; nearly all actives have a fitted effect of over 65% in size; many hits overshoot -100%
Target sequence (P80244 whole entry, looked up): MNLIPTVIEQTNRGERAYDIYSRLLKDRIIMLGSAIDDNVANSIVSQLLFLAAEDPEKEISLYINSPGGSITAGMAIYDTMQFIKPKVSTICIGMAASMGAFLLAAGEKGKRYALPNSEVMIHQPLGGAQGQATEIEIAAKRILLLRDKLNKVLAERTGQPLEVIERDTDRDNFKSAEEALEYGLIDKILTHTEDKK
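Buffer: 100 mM Tris/HCl pH8, 100 mM KCl, 0.05% low protease BSA, 2.5% glycerol, 0.01% Tween-20. ClpP 10 microg/mL final; 20 min RT; delta FRET normalized to ADEP and DMSO controls.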
Menin-MLL FL inh: inhibitors of human menin-MLL interaction, wild-type MLL peptide. Fluorescence polarization, fluorescein-MLL peptide displacement from menin. FP activity change, % at 61.4 µM. 290,000 tested, under 10 active. AID 1766; inconclusive = falling polarisation curve, or a change in total fluorescence; inactive = total fluorescence flat and polarisation flat or rising; no compound was filed as active; the % refers to the polarisation; negative = inhibition;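 note: % of control where 0% means no effect; inhibitors lower the polarisation; unlabelled MLL peptide was the positive control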
D2 PAM: potentiates the human D2 dopamine receptor allosterically; P14416; DiscoveRx D2 beta-arrestin cells, luminescence, 90 min; 100% = 57 uM dopamine signal; potentiation, % (test concentration not listed); 0.23% of 360,000 active; active = potentiation of 50% or more; inconclusive = 30% to 50%; inactive = 30% or less;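 note: compound concentration not given in the record; tested on top of an EC20 dose of dopamine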
Target sequence (P14416 whole entry, looked up): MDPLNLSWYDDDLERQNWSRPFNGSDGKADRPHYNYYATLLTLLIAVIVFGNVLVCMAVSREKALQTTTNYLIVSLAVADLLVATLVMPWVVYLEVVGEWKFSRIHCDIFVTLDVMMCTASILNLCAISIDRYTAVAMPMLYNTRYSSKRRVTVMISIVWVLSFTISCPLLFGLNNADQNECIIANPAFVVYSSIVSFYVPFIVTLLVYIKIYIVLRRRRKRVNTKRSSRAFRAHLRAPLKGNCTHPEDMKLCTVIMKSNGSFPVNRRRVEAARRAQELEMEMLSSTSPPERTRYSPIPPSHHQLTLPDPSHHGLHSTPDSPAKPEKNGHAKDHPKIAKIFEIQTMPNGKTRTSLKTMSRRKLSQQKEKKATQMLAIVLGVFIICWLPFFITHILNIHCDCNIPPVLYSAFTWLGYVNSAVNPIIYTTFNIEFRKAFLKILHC
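PathHunter D2 cells, attached overnight at 37 deg C, received compound in DMSO plus dopamine at EC20 (50 nM final) for 90 min at 37 deg C. Beta-arrestin recruitment was read as luminescence after 1 h with detection reagent at ambient temperature.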
gsp antag: antagonizes gsp, the McCune-Albright syndrome mutation; 0.4% of 340,000 active; Potency, µM (titrated, usually from 76.9 µM), inactives show top-dose activity change, negative = inhibition, hits mostly inhibitors; gsp-mutant cells, cAMP HTRF, 30 min; control for the full effect not named in the record; active = falling curve of any shape with a large fitted effect; inconclusive = falling curve, mostly with a smaller effect; inactive = flat or rising curve; cell line not stated here;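 note: intracellular cAMP measured with PDE inhibitor Ro 20-1724 present during compound exposure; potency is the fitted concentration of half-maximal effect; % is set by controls: 0 for no effect and ±100 for the full control effect; nearly all actives have a fitted effect of over 65% in size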
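HTRF cAMP read-out (cAMP-d2 plus anti-cAMP antibody-K in lysis buffer, 30 min RT). Before lysis, cells are exposed to compounds with […] for 30 min at 37C in DPBS containing Ca/Mg, BSA and Tween 20.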
Starred values were filed as active, the others as inactive; u = inconclusive; x = no result given; & = joins results of further samples; [ ] = remark or other dose.

No.	Compound	gsp ag	TRPV1 potentiator	Sfp inh	ClpP mod	Menin-MLL FL inh	D2 PAM	gsp antag
1	COc1ccc(/C=C/C(=O)Nn2cnnc2)cc1	-10%	-1	22%	-3.5%	0.2	-24	3%
2	CCCS(=O)(=O)c1c(S(=O)(=O)CCC)c2cnccn2c1C(=O)c1ccc(OC)cc1	-6%	-18	13%	-0.2%	0.8	-9	-2%
3	O=C1c2oc3ccc(Cl)cc3c(=O)c2C(c2cccnc2)N1Cc1ccco1 (stereo not given)	x	-3	-24%	x	1.8	x	x
4	Cc1ccc2c(=O)cc(C(=O)NCCc3ccc(S(N)(=O)=O)cc3)oc2c1	15%	6	-11%	-1.2%	1.2	-4	-9%
5	O=C(Nc1ccc(N2CCOCC2)nc1)c1ccccc1Cl	13%[15.4 µM]	-2	15%	-1.8%	2.9	-4	6%
6	Cc1cccn2c(=O)c(/C=C(\C#N)S(=O)(=O)c3ccccc3)c(Oc3ccc(Cl)cc3)nc12	-4%[15.4 µM]	-2	23%	0.9%	2.6	-3	5%
7	CC(C)OCCCNc1ncnc2c1cnn2-c1ccccc1	19%	-10	18%	-5.7%	-1.3	7	5%
8	CCC(C)(C)C1CCC2(CC1)NC(CO)(CO)CO2 (stereo not given)	-1%	-18	8%	-1.6%	0.3	-5	0%
9	CCc1ccc(C(=O)NNC(=O)c2n[nH]c(=O)c3ccccc23)cc1	-4%	-1	x	1.8%	x	-1	12%
10	COc1ccc(C)cc1NC(=O)C(c1ccccc1)N1CCNC(=O)C1 (stereo not given)	x	0	20%	x	2.1	x	x
11	Cc1ccc(Nc2nc(C(=O)N3CCC(C(=O)N4CCN(C)CC4)CC3)cs2)cc1	-4%	5	4%	-2.2%	5.9	-8	3%
12	C=Cc1ccc2c(c1)N(C)C(=C)S2	-11%	-1	10µM*	x	-0.2	-8	11%
13	Cn1cc(CN(CCCN2CCOCC2)C(=S)Nc2cccc(Cl)c2)c2ccccc21	-9%[15.4 µM]	7	3%	-2.2%	2.1	-33	-4%
14	CCC(C)[C@H](NC(=O)Nc1ccc2c(c1)OCCO2)C(=O)OC (stereo not given in full)	18%	-10	2%	x	-11	0	8%
15	COCCNC(=O)C1(S(=O)(=O)c2ccccc2)CC=CC1	1%	15	10%	-0.9%	-0.4	-11	6%
16	COc1ccc(-n2c(C)cc(C(=O)COC(=O)c3cc(OC)c(OC)cc3NC(=O)c3cccs3)c2C)cc1	11%[15.4 µM]	9	4%	x	4.0	3	10%
17	O=C(CS(=O)(=O)c1cn(CC(=O)N2CCOCC2)c2ccccc12)Nc1ccccc1	-7%	u	7%	1.4%	3.7	-8	9%
18	Cc1ccc(/C(O)=C2/C(=O)C(=O)N(CCCn3ccnc3)C2c2ccccn2)cc1 (stereo not given)	x	-8	11%	x	-0.2	x	x
19	OCCC1CN(Cc2ccc(Oc3ncccn3)cc2)CCN1C1CCCCC1 (stereo not given)	23%	-4	5%	0.1%	-2.4	-4	8%
20	COc1ccc(CCC(=O)NC2CCCc3ccccc32)cc1OC (stereo not given)	9%[15.4 µM]	6	-2%	x	-6.5	-2	-9%
21	CC(OC(=O)c1ccc(Cl)c(S(=O)(=O)N2CCOCC2)c1)C(=O)NC1CCCCC1C (stereo not given)	-12%	-24	8%	-1.6%	x	12	0%
22	COc1cc(NC(=O)c2sc(C)nc2C)c(OC)cc1NC(=O)c1ccccc1	-24%	4	5%	1.4%	-6.3	0	-15%
23	C/C=C/Cn1c(Br)nc2c1c(=O)[nH]c(=O)n2C	-15%	-28	7%	1.1%	2.9	-7	12%
24	Cc1cc(C)nc(N2CCCC(C(=O)Nc3ccc4c(c3)OCCO4)C2)n1 (stereo not given)	15%	-12	4%	-6.1%	2.6	-4	13%
25	CCOc1ccccc1NC(=O)Nc1ccc2c(c1)OCO2	18%	0	-4%	-0.2%	5.0	-26	12%
26	CC1CC1C(=O)Nc1cc(C(F)(F)F)ccc1N1CCOCC1 (stereo not given)	-4%	-17	5%	-2.5%	x	-13	4%
27	CCc1noc(C)c1C(=O)Nc1cc(S(=O)(=O)N2CCOCC2)ccc1N1CCN(CC)CC1	u	4	x	0.4%	x	-12	0%
28	Cc1cccc(N(C(=O)c2snc(C(N)=O)c2N)C(C(=O)NC2CCCC2)c2ccncc2)c1 (stereo not given)	13%[15.4 µM]	-6	18%	x	x	1	-44%
29	COc1cc([N+](=O)[O-])ccc1NC(=O)NCc1cccnc1	14%	-22	-13%	0.2%	x	-44	5%
30	CN(Cc1ccco1)C(=O)c1ccc(S(=O)(=O)N2CCCCCC2)cc1	-16%	-7	x	0.7%	x	1	-19%
31	COc1ccc(C)cc1-n1nnnc1SCC(=O)c1ccc2c(c1)OCCO2	-1%	-11	-7%	0.5%	3.0	1	7%
32	Cc1ccc(C(=O)C2CCN(CC(=O)N3CCN(c4ccc(F)cc4)CC3)CC2)cc1	4%	5	19%	x	-0.6	-13	-13%
33	O=C(NN=C1CCCC1)C(=O)Nc1cccc(C(F)(F)F)c1	-4%	-2	8%	-5.5%	2.6	-5	4%
34	O=C1CCCc2oc3ccc(O)cc3c21	2%	-28	-8%	-1.6%	-0.1	-21	6%
35	CN(C)Cc1ccccc1Sc1cccc2ccccc12	0%[15.4 µM]	-6	-71%	-2.7%	1.8	-41	19%
36	COc1ccccc1NC(=O)c1ccc(NS(=O)(=O)c2ccc(F)c(Cl)c2)cc1	26%	3	-3%	-0.8%	0.9	3	-26%
37	CCOc1ccccc1NC(=O)Cn1nnc(C(=O)NCc2ccc3c(c2)OCO3)c1N	3%	7	0%	0.8%	2.0	-16	20%
38	COc1ccc(NC(=O)CCN(c2ccc(OC)cc2)S(=O)(=O)c2ccc(C)c(C)c2)cc1	11%	x	x	-3.0%	x	-12	10%
39	CCOc1cc(/C=N/NC(N)=O)cc(Br)c1OCc1ccccc1	-11%	2	5%	-6.2%	1.1	4	2%
40	Cc1ccccc1Oc1cc(NC(=O)CCCn2nc(C)c([N+](=O)[O-])c2C)cc([N+](=O)[O-])c1	31%	4	6%	1.4%	12	-6	-38%
41	Cc1ccc(C(=O)NC(=S)Nc2ccc3c(c2)OCCO3)c(C)c1	-15%	-5	1%	1.1%	-2.0	6	u
42	COC(=O)c1ccc(Cn2nc(-c3ccc(C)cc3)ccc2=O)cc1	u	6	-17%	u	-4.2	2	-18%
43	CCc1c(C)sc2nc3c(C(=O)N4CCOCC4)cc(C(=O)c4cc(F)ccc4O)cn3c(=O)c12	41%	11	u	x	u	0	u
44	Clc1ccc(SCc2cc(Cl)nc(-c3ccccc3)n2)cc1	-2%	x	x	-2.2%	x	-17	0%
45	COC(=O)c1c2c(nc3ccccc13)CCC2	-79%[inhibitor]	6	6%	-19%	0.3	-16	22%
46	NC(=O)c1ccc(NC(=O)COC(=O)c2cc(S(=O)(=O)N3CCOCC3)ccc2N2CCCCC2)cc1	21%	x	16%	-3.3%	2.9	-9	8%
47	O=C(c1ccc(Cl)c(S(=O)(=O)N2CCCC2)c1)N1CCN(c2ccc(F)cc2)CC1	0%[15.4 µM]	-11	0%	x	-0.7	2	x
48	O=C(CSc1nc2[nH]ncc2c(=O)[nH]1)N1CCCC1	8%	24	6%	1.2%	6.0	-12	10%
49	CCCNC(=O)NNC(=O)c1ccc(F)cc1	2%[15.4 µM]	18	20%	-1.1%	2.3	-14	10%
50	CC1CCC(NC(=O)c2nn(C)c(=O)c3ccccc23)CC1 (stereo not given)	-90%[inhibitor]	x	x	-0.6%	x	-22	x
51	COc1cc(O)c(C(CCN2CCCC2)c2ccc(N(C)C)cc2)c(OC)c1 (stereo not given)	x	-13	-22%&-28%	-0.3%	6.0&10	-18	-4%
52	COC(=O)c1sc(-c2ccc(Cl)cc2)cc1NC(=O)CSCC(=O)O	35%	13	-2%	3.6%	9.3	-23	u
53	O=C(c1ccccc1Cl)N1N=C(c2ccc(Br)cc2)CC1c1nc2ccccc2[nH]1 (stereo not given)	4%	-2	1%	-5.8%	2.2	-20	-18%
54	Cc1cc(C(F)(F)F)c(C#N)c(SCC(=O)NC(C)(C)C)n1	6%	0	13%	-2.5%	0.8	-8	-24%
55	Cn1ncc(C(=O)Nc2ccc(OC(F)(F)F)cc2)c1-n1cccc1	0%[15.4 µM]	12	10%	-0.6%	4.3	-7	2%
56	Cc1ccc(NS(=O)(=O)c2cccc(C(=O)NCC(c3cccs3)N3CCOCC3)c2)cc1 (stereo not given)	1%	2	x	0.5%	x	4	-17%
57	CC(=O)Nc1ccc(CN2CCCCCCC2)cc1	-43%[inhibitor]	-9	13%	-1.9%	-1.6	-6	11%
58	O=S(=O)(c1ccc(Oc2ccc(S(=O)(=O)N3CCOCC3)cc2)cc1)N1CCOCC1	5%	-5	10%	-3.2%	-0.3	-2	-5%
59	NC(=O)c1ccsc1NC(=O)CSc1nc2ccccc2c(=O)n1CCCO	-21%	-14	0%	-1.1%	8.2	-7	9%
60	COc1cccc(CN2CCNC(=O)C2CC(=O)N2CCCCO2)c1OC (stereo not given)	-12%	1	-24%	2.8%	-9.4	-2	7%

(listing goes on)
No.	Compound	gsp ag	TRPV1 potentiator	Sfp inh	ClpP mod	Menin-MLL FL inh	D2 PAM	gsp antag
61	CCOC(=O)C1=C(C)NC(C)=C(C(=O)OCC)C1C(=O)OCC(=O)N(CC)C1CCS(=O)(=O)C1 (stereo not given)	-5%[15.4 µM]	10	23%	x	-2.9	17	13%
62	O=C(CCN1C(=O)C2C3CCC(C3)C2C1=O)Nc1ccccc1C(F)(F)F (stereo not given)	-23%	2	6%	1.4%	4.3	-6	8%
63	Nc1nc2ncc(-c3ccsc3)c(N)n2n1	5%[15.4 µM]	7	22%	x	-0.4	1	-1%
64	COc1cccc(/C=N/NC(=O)C(=O)N2CCCCCC2)c1O	-4%	0	11%	0.4%	x	1	2%
65	CCC1Oc2ccc(C)cc2N(CC(=O)NCCC2=CCCCC2)C1=O (stereo not given)	-29%	-6	-18%	0.2%	-1.9	-9	-19%
66	CC1Cc2ccccc2N1C(=O)COC(=O)c1ccc(N(C)C)cc1 (stereo not given)	-26%	-9	x	98%	x	0	-18%

Source: PubChem
